Screening data from PubChem.
AID923 – qHTS Assay for Allosteric/Competitive Inhibitors of Caspase-1: Spectroscopic Profiling in AFC Spectral Region. compound fluorescence, AFC spectral region (405/520 nm); almost no hit is shown here. Potency, µM (doses to about 57.5 µM), for the others: at the top dose fluorescence increase, actives largely listed as activators. actives 1.1% (n = 75,000). AID 923, 2007; active = well fitted activation curve with a large enough effect; inconclusive = small, poorly fitted or top-dose-only effect;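 also: potency is read from the fitted curve at half-maximal effect; 0% is about no effect; scaled to a free AFC standard on each plate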
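Titrations up to 57 uM read every 20 sec for 3 min (405/520 nm) with 50 nM caspase 1 and 5 uM Ac-WEHD-AFC, pH 7.5 HEPES buffer. Fluorescence-vs-time intercept gave baseline, scaled against on-plate AFC standard.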
TSHR agonist – TSH receptor (human) agonism. HEK293-CNG-TSHR cells (CNG channel as cAMP sensor), membrane potential dye, cAMP. actives 0.48% (n = 73,000). Potency, µM (series often up to 57.1 µM), for inactives: at the top dose activation, usual class: activators; active = well fitted activation curve of enough size with the parental cells flat; inconclusive = any curve in the parental cells; inactive = parental cells flat and receptor cells flat or falling; also: potency is read from the fitted curve at half-maximal effect; % of control where 0% means no effect; weak receptor curves with flat parental cells got no call and are not listed
Target sequence (P16473 whole entry, looked up): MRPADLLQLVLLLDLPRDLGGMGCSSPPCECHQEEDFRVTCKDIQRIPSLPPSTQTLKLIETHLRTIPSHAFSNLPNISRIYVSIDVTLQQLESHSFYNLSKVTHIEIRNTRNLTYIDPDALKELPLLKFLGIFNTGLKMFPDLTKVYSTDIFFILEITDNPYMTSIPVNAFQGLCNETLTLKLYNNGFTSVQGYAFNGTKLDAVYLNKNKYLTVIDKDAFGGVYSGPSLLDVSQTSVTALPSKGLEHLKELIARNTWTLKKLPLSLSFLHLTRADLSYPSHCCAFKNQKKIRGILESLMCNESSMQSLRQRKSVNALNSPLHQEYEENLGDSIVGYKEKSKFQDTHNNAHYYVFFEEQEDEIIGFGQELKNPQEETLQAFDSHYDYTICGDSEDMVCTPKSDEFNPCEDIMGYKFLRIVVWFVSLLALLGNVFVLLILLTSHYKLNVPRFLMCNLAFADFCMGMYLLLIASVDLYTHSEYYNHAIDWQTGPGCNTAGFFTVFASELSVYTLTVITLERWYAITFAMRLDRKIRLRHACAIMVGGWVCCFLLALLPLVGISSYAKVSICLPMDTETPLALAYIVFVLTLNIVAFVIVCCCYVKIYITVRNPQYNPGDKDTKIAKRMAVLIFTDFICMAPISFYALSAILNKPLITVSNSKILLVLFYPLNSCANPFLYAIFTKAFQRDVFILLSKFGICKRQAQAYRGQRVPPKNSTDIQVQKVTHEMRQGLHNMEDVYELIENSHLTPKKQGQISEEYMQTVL
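HEK 293 cells stably expressing TSHR and a modified CNG channel, with CNG-only parental cells as counterscreen, were preloaded 60 min at room temperature with membrane potential dye containing 100 uM RO 20-1724. Compound exposure was 30 min, and depolarization was read as fluorescence at 590 nm.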
A488 autofl – compound fluoresces in the A488 spectral region. max dye equivalency, M. actives 0.1% (n = 59,000). compound autofluorescence, A488 spectral region, dye equivalency; active compounds read high; active = above 10 nM dye equivalent; inconclusive = 1 to 10 nM; inactive = 1 nM or less; about half of its hits are not listed in these tables;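 also: highest value over a series up to 38 µM; compound alone in buffer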
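Compounds pin-transferred into 100 mM Tris buffer, pH 8.0, incubated 15 min at room temperature, then imaged with 480 nm excitation/540 nm emission filters. Fluorescence converted to Alexa 488 dye-equivalent concentration via an on-plate six-point A488 standard curve.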
Resorufin fluor – compounds fluorescent in resorufin spectral region. Compound fluorescence, resorufin region 547/598 nm, buffer; active compounds read high. max dye-equivalent concentration, M. actives 0.04% (n = 59,000). AID 588; active = above 10 nM dye equivalent; inconclusive = 1 to 10 nM; inactive = 1 nM or less; a few of its hits are not listed in these tables; also: highest value over a series up to 38 µM
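Compounds in 100 mM Tris, pH 8.0, incubated 15 min at room temperature, then fluorescence read at 547 nm excitation/598 nm emission. Signal converted to dye-equivalent concentration via an on-plate six-point resorufin standard curve, per compound concentration.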
A647 fluor – compound fluoresces in the A647 spectral region; Compound fluorescence, A647 channel (570/671 nm), Tris buffer; max dye-equivalent concentration, M; 59,000 tested, under 10 active; active means above 1 µM dye equivalent; inconclusive means 0.1 to 1 µM; inactive means 0.1 µM or less;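 also: values scaled relative to a standard on each plate; highest value over a series up to 38 µM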
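Compounds pinned into 100 mM Tris pH 8.0, 15 min at room temperature, then read with 570 nm excitation/671 nm emission filters. Fluorescence normalized to an on-plate six-point Alexa 647 standard curve, giving dye-equivalent concentration per compound concentration.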
Starred values were filed as active, the others as inactive; i = inactive; u = inconclusive; x = not tested or not shown; [ ] = remark or other dose. This is a subset; rates above refer to the full screens.

Compound	AID923	A488 autofl	TSHR agonist	Resorufin fluor	A647 fluor
COCC(=O)c1[nH]c2ccccc2c1C	3.0%	i	-18.8%	i	2.1e-09
CCOC(=O)c1c(COc2ccccc2)oc2ccc(O)cc12	6.7%	x	u	x	x
Cc1sc(N)c(C(=O)c2cccc(C(F)(F)F)c2)c1C	-4.2%	x	-7.3%	x	x
Oc1ccc(Nc2nc(-c3ccc(Cl)cc3)cs2)cc1	-2.6%	x	u	x	x
CC(C)(C)NC(=O)CSc1nncn1-c1ccccc1	-1.4%	i	-5.4%	i	4.2e-08
CC(=O)Cc1ccccc1OC(=O)c1ccco1	2.7%	i	1.5%	i	1e-09
COc1ccc(NC(=O)Cn2c(=O)sc3ccccc32)c(OC)c1	-1.3%	x	4.9%	x	x
COc1ccc(CNC(=O)C2CCN(C(=O)[C@@H](CC(C)C)NC(=O)OC(C)(C)C)CC2)cc1	-1.4%	i	1.2%	i	2.7e-08
CN(C)c1ccc(C=Nc2ccc(N(C)C)cc2)cc1	7.0%	x	3.4%	x	x
CCSc1nnc(NC(=O)C2CCCCC2)s1	3.0%	i	x	i	2.4e-09
CCN(CC)CCCN1C(=O)C(=O)/C(=C(/O)c2cnn(-c3ccccc3)c2C)C1c1ccncc1 (centres undefined)	1.7%	i	6.9%	i	1e-09
COC(=O)[C@H]1C[C@@H]1[C@H](NC(=O)Oc1ccc(F)cc1)c1ccccc1	0.1%	x	u	x	x
O=C(O)c1cncc(C(=O)O)c1	1.1%[11.5 µM]	i	-0.9%[11.4 µM]	i	3.5e-08
Fc1ccc(C2CC(c3ccco3)n3ncnc3N2)cc1 (centres undefined)	-1.4%	x	-0.3%	x	x
O=C(NCc1cccs1)c1cc(-c2ccccc2)on1	0.7%	i	0.9%	i	1e-09
COC(=O)c1ccccc1NC1OC(=O)c2ccccc21 (centres undefined)	0.3%	i	-2.0%	i	1e-09
CCC/C=C(\CCC)C(NP(=O)(c1ccccc1)c1ccccc1)c1ccc(-c2ccccc2)cc1 (centres undefined)	1.0%	x	1.2%	x	x
O=C1c2sc3nc4ccccc4n3c2C(=O)N1c1ccccc1Cl	-1.5%	i	u	i	1e-09
COc1cccc(OC)c1OCCCc1c(C)n[nH]c1C	0.8%	i	4.1%	i	1e-09
Cc1ccc(OCC(=O)NCc2ccccn2)cc1	0.9%	i	-0.4%	i	8.7e-09
CCCCOc1ccc(S(=O)(=O)n2c(C)nc3ccccc32)cc1	-0.9%	x	u	x	x
CC(C)N1C(=O)CCC1C(=O)NCCc1ccc(Cl)cc1 (centres undefined)	-0.7%	x	4.3%	x	x
CC1CNCCN1S(=O)(=O)c1cccc2cnccc12 (centres undefined)	x	i	x	i	2.6e-09
O=C(O)c1cc2cccc(S(=O)(=O)N3CCOCC3)c2cc1O	x	i	x	i	1e-09
CC(=O)Nc1cc(N2C(=O)CCC2=O)ccc1Cl	-1.3%	x	-0.2%	x	x
Cc1ccc(-c2noc(CCC(=O)NCCN3CCOCC3)n2)cc1	-1.2%	i	-7.1%	i	1e-09
CCOC(=O)c1ccc(Oc2nc(NC)nc(SC)n2)cc1	-0.3%	i	2.8%	i	3.2e-08
COc1ccc2nc(NC(=O)CSc3nc4ccccc4o3)sc2c1	-0.8%	i	11.5%	i	1e-09
O=C1CCCN1c1ccc(S(=O)(=O)N2CCC(c3ccccc3)CC2)cc1	0.6%	i	u	i	4.7e-09
COc1ccccc1-c1c(C)nn2c(NCCN3CCCC3)cc(C)nc12	2.4%	x	2.0%	x	x
CC(C)(C)c1nc(SCC(=O)NCc2ccco2)c2ccccc2n1	0.0%	i	u	i	1.08e-08
Cc1ccc(OCC(=O)Nc2ccc(N3CCOCC3)cc2)cc1	2.3%	x	-5.5%	x	x
CN=C(Nc1cc(C)nn1CCC#N)c1ccccc1	0.5%	i	0.1%	i	1.7e-09
O=C(c1ccncc1)N1CCC[C@@]2(CCN(Cc3cc(C(F)(F)F)cc(C(F)(F)F)c3)C2)C1	1.0%	i	u	i	1e-09
Cc1nc2sc3c(c2c(=O)n1/N=C/c1ccco1)CCCC3	0.8%	i	u	i	4e-09
Cc1cc(C)c(C#N)c(SCC(=O)CC(=O)OC(C)C)n1	4.3%	i	u	i	1.15e-08
CC(C)CCN1CC(C(=O)N2CCN(c3ccc(F)cc3)CC2)CC1=O (centres undefined)	0.6%	i	9.1%	i	4.8e-09
CCCSc1nc(O)c(C2OC(=O)c3c2ccc(OC)c3OC)c(=O)n1C (centres undefined)	x	i	x	i	6.89e-08
Clc1ccc(-c2nnc3sc(Cc4cccs4)nn23)c(Cl)c1	x	i	x	i	1.04e-08
O=C(NCCc1ccccc1)C1CCN(S(=O)(=O)N2CCCC2)CC1	-1.4%	i	u	i	5.9e-09

2 consecutive records out of the list so far, for reference:
Compound	AID923	A488 autofl	TSHR agonist	Resorufin fluor	A647 fluor
O=C(c1ccncc1)N1CCC[C@@]2(CCN(Cc3cc(C(F)(F)F)cc(C(F)(F)F)c3)C2)C1	1.0%	i	u	i	1e-09
Cc1nc2sc3c(c2c(=O)n1/N=C/c1ccco1)CCCC3	0.8%	i	u	i	4e-09

More structures follow:
Compound	AID923	A488 autofl	TSHR agonist	Resorufin fluor	A647 fluor
CC(=O)c1cc(-c2ccccc2)[nH]c1N1CCCC1	1.2%	i	7.2%	i	1.57e-08
Cc1c(O)c(CN2CCCC(C)C2)cc2c3c(c(=O)oc12)CCC3 (centres undefined)	x	i	x	i	1e-09
CCC(=O)c1ccc(OC(=O)c2ccc(Br)o2)cc1	3.3%	i	-5.0%	i	2.15e-08
CC(=O)Nn1cnc2c(c1=O)C1(CCCC1)Cc1ccccc1-2	x	i	x	i	3.6e-09
CC(C)Cc1nc(N2CCC(C(N)=O)CC2)c2nnn(Cc3ccccc3)c2n1	-0.5%	i	2.3%	i	1e-09
CCOC(=O)N1CCN(c2c(-c3ccc(C(C)C)cc3)c(=O)c2=O)CC1	1.6%	i	10.1%	i	3.25e-08
O=C1C2CCCN2C(c2cccc(Br)c2)N1c1ccc(F)cc1 (centres undefined)	-1.6%	x	19.5%	x	x
Cn1c(=O)c(=O)n(C)c2cc(S(=O)(=O)N3CCN(Cc4ccccc4)CC3)ccc21	-1.3%	i	-2.8%	i	6.3e-09
CC1(C)NC(=O)NC2(C)NC(=O)NC(C)(C)C12 (centres undefined)	2.6%	i	-5.5%	i	7.5e-09
CCOC(=O)CCN1C(=O)[C@H]2[C@H]3[C@H](O)[C@H](O)C/C(=N/OCC(C)C)[C@@H]3CC[C@@H]2C1=O	1.4%[11.5 µM]	x	1.3%[11.4 µM]	x	x
CN1CCN(C(=O)CN2C(=O)CC(C)(C)S(=O)(=O)c3ccccc32)CC1	1.2%	i	1.7%[11.4 µM]	i	1e-09
COc1ccc(NC(=O)c2ccc(=O)oc2)cc1	1.8%	i	-2.3%	i	5.7e-09
N#Cc1nc(COc2ccc(Br)cc2)oc1N1CCN(Cc2ccccc2)CC1	x	i	x	i	1e-09
CCc1nc(SCc2ccccn2)c2c(=O)n(C)c(=O)n(C)c2n1	5.2%	x	-0.4%[11.4 µM]	x	x
O=C(CC1NC(=O)NC1=O)Nc1cccc2ccccc12 (centres undefined)	16.6%	u	11.7%	i	1e-09
Cc1ccc2[nH]c(=O)c(CN(CCO)C(=O)NCc3ccccc3)cc2c1	-1.2%	i	3.1%	i	1.27e-08
Cc1ccc2oc(-c3cccc(NC(=O)C4CCCO4)c3)nc2c1 (centres undefined)	-0.7%	i	4.0%	i	2.22e-08
C/C(=C(\C#N)C(=O)NC1CCCCC1)N(C)C	8.9%	x	-1.2%	x	x
Cc1nc(SCc2ccc(Br)cc2)[nH]c(=O)c1C	0.0%	i	x	i	1e-09
CCCN(CCC)C(=O)c1c(C)[nH]c(C(=O)OCC)c1C	2.5%	x	13.5%	x	x
Clc1nnc2ccc(-c3ccccc3)nn12	1.1%	x	-6.3%[11.4 µM]	x	x
N=C(N)SCC(=O)O	0.6%[11.5 µM]	i	-2.6%[11.4 µM]	i	2.3e-09
Cc1nn(CCC#N)c2nc(C(F)(F)F)[nH]c(=O)c12	-0.3%	i	2.3%	i	1e-09
CCOC(=O)C1CCN(S(=O)(=O)c2cccc(-c3csc(C)n3)c2)CC1	1.6%	i	u	i	1e-09
O=C(O)CC(NC(=O)C(c1ccccc1)c1ccccc1)c1ccco1 (centres undefined)	0.2%	i	6.4%	i	2.5e-09
COc1ccc(N2CCN(C(=O)C3CCN(S(=O)(=O)N4CCOCC4)CC3)CC2)cc1	0.7%	i	-4.6%[11.4 µM]	i	1e-09
CCCCCn1c(=O)c(-c2nc3ccccc3c(=O)[nH]2)c(O)c2ccccc21	-0.4%	i	10.6%	i	1e-09
CCc1cccc(NC(=O)CN(C)S(=O)(=O)c2cnc[nH]2)c1	-0.6%	i	-1.9%	i	2.47e-08
Oc1c(C(c2cccs2)N2CCC3(CC2)OCCO3)sc2ncnn12 (centres undefined)	-1.9%	x	-11.8%	x	x
Cc1n[nH]c(=O)[nH]c1=O	5.1%[25.7 µM]	i	-10.9%[25.6 µM]	i	5.2e-09
CCOC(=O)C1CCN(C(=O)Cc2c(F)cccc2Cl)CC1	-0.9%	i	9.6%	i	2.97e-08
Cc1ccc(-c2nn3c(C)nnc3s2)cc1NC(=O)COc1ccc(Cl)cc1	-1.0%	x	2.3%	x	x
c1ccc(CCN2CN(CCCN3CCOCC3)c3nc4ccccc4n3C2)cc1	-1.3%	i	u	i	1e-09
CC(=O)NC(Cc1ccccc1)C(=O)N1CCN(C(=O)c2cccs2)CC1 (centres undefined)	-0.1%	i	1.1%	i	1e-09
CCOc1ccc2[nH]c(=O)c(CN(CC3COCCO3)C(=O)C3CC3)cc2c1 (centres undefined)	3.6%	i	0.3%	i	2.73e-08
O=C(Nc1ccccc1C(=O)NCc1ccco1)c1ccccc1	1.1%	x	u	x	x
CCOc1cccc2cc(-c3nnc(-c4ccccc4)o3)c(=O)oc12	7.6%	i	-3.5%	i	2.95e-08
C=CCc1cccc2cc(C(=O)OCC)c(=O)oc12	2.3%	x	-7.8%	x	x
COc1ccc(C(c2nnnn2Cc2ccccc2)N2CCN(c3nc4ccccc4s3)CC2)cc1 (centres undefined)	0.6%	i	-0.9%	i	3.97e-08
CCSc1nc2c(c(=O)[nH]c(=O)n2C)n1CC(O)COc1ccccc1C (centres undefined)	-1.3%	i	11.3%	i	8.6e-09
Clc1ccc(-c2noc(CN3CCCCC3)n2)cc1	3.0%[11.5 µM]	i	-2.3%[11.4 µM]	i	1e-09
CN1CCCN(Cc2ccccc2C(F)(F)F)CC1	-0.5%	x	9.2%[11.4 µM]	x	x
COc1ccc2c(c1)CCc1c-2n[nH]c1C(=O)O	-0.9%	i	-3.2%[11.4 µM]	i	2.4e-09
Cn1cccc1Cc1nnc(SCC(=O)N2CCOCC2)n1-c1ccc(F)cc1	3.3%	x	-2.5%	x	x
Cc1nc(-c2ccccc2)sc1C(N)=O	2.9%	i	1.2%	i	2.47e-08
O=C(NCC1COc2ccccc2O1)Nc1ccccc1F (centres undefined)	-0.2%	i	u	i	2.35e-08
CCOC(=O)N1CCN(C(=O)C2CCCN(c3ncnc4c3sc3cccc(F)c34)C2)CC1 (centres undefined)	0.5%	i	6.6%	i	2.5e-09
